Source: PubChem (National Center for Advancing Translational Sciences (NCATS))
nsP2pro inh: CHIKV nsP2 protease inhibition, primary qHTS. Q8JUX6. FRET peptide cleavage, nsP2pro, fluorescence 1 h. Potency, µM (doses to about 24.9 µM), for inactives: at the top dose activity change, negative = inhibition, hits mostly inhibitors. 31,000 tested, 1.1% active; active means well fitted inhibition curve with a large enough effect; inconclusive means small, poorly fitted or top-dose-only effect; inactive means no such curve, though single readings can be large or run the other way; note: nearly all actives have a fitted effect of over 60% in size; a reference inhibitor and vehicle were the controls
Target sequence (Q8JUX6 whole entry, looked up): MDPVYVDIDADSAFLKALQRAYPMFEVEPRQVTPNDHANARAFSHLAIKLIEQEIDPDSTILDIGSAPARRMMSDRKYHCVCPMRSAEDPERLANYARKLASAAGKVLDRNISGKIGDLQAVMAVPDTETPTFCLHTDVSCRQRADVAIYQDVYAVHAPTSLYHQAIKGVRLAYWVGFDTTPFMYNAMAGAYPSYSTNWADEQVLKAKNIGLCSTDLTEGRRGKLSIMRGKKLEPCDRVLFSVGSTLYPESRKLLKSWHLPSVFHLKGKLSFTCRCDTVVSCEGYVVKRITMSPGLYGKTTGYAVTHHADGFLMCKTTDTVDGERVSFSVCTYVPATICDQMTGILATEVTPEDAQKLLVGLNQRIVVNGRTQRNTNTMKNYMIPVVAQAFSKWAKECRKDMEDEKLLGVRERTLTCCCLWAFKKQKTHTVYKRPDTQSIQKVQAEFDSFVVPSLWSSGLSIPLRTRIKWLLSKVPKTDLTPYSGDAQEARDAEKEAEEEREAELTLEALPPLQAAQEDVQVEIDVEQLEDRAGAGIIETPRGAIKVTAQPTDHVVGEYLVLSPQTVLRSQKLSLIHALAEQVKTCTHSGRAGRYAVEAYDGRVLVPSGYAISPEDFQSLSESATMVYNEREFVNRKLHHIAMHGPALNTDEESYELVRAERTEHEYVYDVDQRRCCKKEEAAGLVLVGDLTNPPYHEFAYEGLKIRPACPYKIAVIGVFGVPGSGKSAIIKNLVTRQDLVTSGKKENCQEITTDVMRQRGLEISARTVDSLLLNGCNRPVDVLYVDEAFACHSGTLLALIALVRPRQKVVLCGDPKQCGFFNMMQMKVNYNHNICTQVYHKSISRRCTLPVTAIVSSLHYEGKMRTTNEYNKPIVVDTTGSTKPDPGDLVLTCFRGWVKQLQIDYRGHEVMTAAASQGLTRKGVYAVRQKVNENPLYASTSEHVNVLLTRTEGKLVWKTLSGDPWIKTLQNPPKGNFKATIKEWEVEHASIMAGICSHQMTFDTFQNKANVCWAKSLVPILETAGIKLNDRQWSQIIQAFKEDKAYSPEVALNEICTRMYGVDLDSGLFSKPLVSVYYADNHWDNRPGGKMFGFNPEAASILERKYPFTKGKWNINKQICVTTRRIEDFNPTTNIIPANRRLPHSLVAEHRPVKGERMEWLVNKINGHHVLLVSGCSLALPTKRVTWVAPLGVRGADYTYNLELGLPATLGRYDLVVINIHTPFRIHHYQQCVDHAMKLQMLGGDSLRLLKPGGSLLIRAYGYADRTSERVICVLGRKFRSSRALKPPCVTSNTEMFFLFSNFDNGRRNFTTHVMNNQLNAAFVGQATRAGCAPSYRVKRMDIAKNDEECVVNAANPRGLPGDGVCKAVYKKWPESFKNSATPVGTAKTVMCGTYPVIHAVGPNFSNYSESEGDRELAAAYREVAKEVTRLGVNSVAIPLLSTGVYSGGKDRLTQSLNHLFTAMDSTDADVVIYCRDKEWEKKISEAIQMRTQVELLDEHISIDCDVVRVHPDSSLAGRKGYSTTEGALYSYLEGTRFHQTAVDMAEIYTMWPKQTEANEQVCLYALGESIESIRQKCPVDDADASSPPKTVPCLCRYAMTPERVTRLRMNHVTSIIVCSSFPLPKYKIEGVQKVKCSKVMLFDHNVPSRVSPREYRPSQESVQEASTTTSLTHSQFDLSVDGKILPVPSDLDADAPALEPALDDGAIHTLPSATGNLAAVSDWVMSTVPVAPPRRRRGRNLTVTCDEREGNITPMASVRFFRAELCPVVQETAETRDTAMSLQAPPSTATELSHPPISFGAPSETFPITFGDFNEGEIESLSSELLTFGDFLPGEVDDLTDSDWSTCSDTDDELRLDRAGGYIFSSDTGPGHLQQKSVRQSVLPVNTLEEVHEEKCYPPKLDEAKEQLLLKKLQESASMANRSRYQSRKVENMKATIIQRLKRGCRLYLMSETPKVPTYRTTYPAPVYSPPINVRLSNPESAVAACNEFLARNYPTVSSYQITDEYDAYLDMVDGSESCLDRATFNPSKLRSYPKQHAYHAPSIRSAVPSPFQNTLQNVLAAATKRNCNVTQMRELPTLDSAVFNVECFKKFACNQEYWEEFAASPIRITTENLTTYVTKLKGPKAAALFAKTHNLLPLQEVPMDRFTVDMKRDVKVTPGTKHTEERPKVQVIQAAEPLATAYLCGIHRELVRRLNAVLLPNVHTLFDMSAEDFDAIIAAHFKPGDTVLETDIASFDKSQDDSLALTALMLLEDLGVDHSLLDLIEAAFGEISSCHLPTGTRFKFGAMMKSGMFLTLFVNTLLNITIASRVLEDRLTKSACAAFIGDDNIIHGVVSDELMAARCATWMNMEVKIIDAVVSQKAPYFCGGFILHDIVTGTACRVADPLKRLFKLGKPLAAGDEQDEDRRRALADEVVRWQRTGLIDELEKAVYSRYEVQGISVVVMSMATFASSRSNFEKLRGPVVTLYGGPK
* marks the source's active call; other numbers are inactive results; i = inactive; ? = inconclusive; & = joins results of further samples; [ ] = dose if it differs, or a comment. % is set by controls: 0 for no effect and ±100 for the full control effect; potency is the fitted concentration of half-maximal effect. This is a subset; count on the stated rates, not on these rows.

The first 22 records, ahead of the listing:
SMILES	nsP2pro inh
CN(C1CCCc2ccccc21)S(=O)(=O)c1cccc(C(F)(F)F)c1 (centres undefined)	2.3%
Cc1oc2ncn(C)c(=O)c2c1C(=O)NCCCN1CCCC(C)C1 (centres undefined)	-4.9%
CCC(c1cccs1)N1C(=O)[C@H]2CN(S(=O)(=O)c3ccccc3F)C[C@H]2C1=O (some centres undefined)	4.8%
CC1(C)NC2N(C1=O)c1ccccc1C2(O)CC(C(=O)O)n1cnc2ccccc2c1=O (centres undefined)	-16.2%[10 µM]
CC1=CC(=O)C2(OC3OC(C)C(O)C(OC(=O)/C=C/c4ccccc4)C3O)C=COC(OC3OC(CO)C(O)C(O)C3O)C12 (centres undefined)	7.1%[10 µM]
CCN(CC)C(=O)CSc1nc(-c2ccccc2F)nc2c1Cc1c(CO)cnc(C)c1O2	-27.9%
CCCS(=O)(=O)N1CC[C@H]2NC(=O)N(c3ccc(F)cc3)C(=O)[C@H]21	?
O=C(c1ccccc1)N1C[C@@H]2C[C@H](C1)c1ccc(NS(=O)(=O)c3cccc(F)c3)c(=O)n1C2	?
Cc1cccc(C(=O)N2CCC(c3nc(-c4cccn4C)no3)C2)c1 (centres undefined)	i
COC(=O)c1cnn(-c2ccc(C(=O)Nc3ccc(OC(F)(F)F)cc3)cc2)c1N	-0.7%
CCCOc1ccc(CNC(=O)CCCn2nc(C)c3sc4ccccc4c3c2=O)cc1	-17.0%
CC1(C)[C@@H]2CC[C@@]1(C)[C@H](OC(=O)CSC#N)C2	-18.1%
Cc1cc(C)n2c(Nc3ccccc3)c(-c3ccc(C)o3)nc2n1	62.1%
CCc1cccc(CC)c1NC(=O)C(CC)n1nc(C)n2c(cc3cc(C)ccc32)c1=O (centres undefined)	-14.7%
CCc1ccc2ncc3c(-c4ccc(C)cc4)nn(CC(=O)NCc4ccccc4)c3c2c1	-22.5%
COc1ccc(C2Nc3ccccc3C(=O)N2CCCN(C)C)cc1COc1c(C)cc(NC(C)=O)cc1C (centres undefined)	4.4%
Cc1ccc(-c2cc3n(n2)CCCN(C(=O)c2cc(CN4CCOCC4)on2)C3)o1	1µM*
Cc1cc(NC(=O)Nc2nnc(C3CCCCC3)s2)ccc1Cl	-2.2%
Fc1cccc(CNc2ncnc3ccc(-c4ccccc4Cl)cc23)c1	0.2%
CC[C@@]1(C(=O)O)C[C@H](C(=O)N(C)CCCO)[C@H](c2ccc(OC)cc2)N1C	-8.8%
CCN(CC)Cc1nccn1-c1ccc([N+](=O)[O-])cc1C(=O)c1ccccc1Cl	6.5%
O=C(O)C[C@@H]1CCN(S(=O)(=O)c2ccccc2)C[C@@H]1CCN(CCN1CCOCC1)c1ccccc1	-13.6%

Results, from the start:
SMILES	nsP2pro inh
CN(C1CCCc2ccccc21)S(=O)(=O)c1cccc(C(F)(F)F)c1 (centres undefined)	2.3%
Cc1oc2ncn(C)c(=O)c2c1C(=O)NCCCN1CCCC(C)C1 (centres undefined)	-4.9%
CCC(c1cccs1)N1C(=O)[C@H]2CN(S(=O)(=O)c3ccccc3F)C[C@H]2C1=O (some centres undefined)	4.8%
CC1(C)NC2N(C1=O)c1ccccc1C2(O)CC(C(=O)O)n1cnc2ccccc2c1=O (centres undefined)	-16.2%[10 µM]
CC1=CC(=O)C2(OC3OC(C)C(O)C(OC(=O)/C=C/c4ccccc4)C3O)C=COC(OC3OC(CO)C(O)C(O)C3O)C12 (centres undefined)	7.1%[10 µM]
CCN(CC)C(=O)CSc1nc(-c2ccccc2F)nc2c1Cc1c(CO)cnc(C)c1O2	-27.9%
CCCS(=O)(=O)N1CC[C@H]2NC(=O)N(c3ccc(F)cc3)C(=O)[C@H]21	?
O=C(c1ccccc1)N1C[C@@H]2C[C@H](C1)c1ccc(NS(=O)(=O)c3cccc(F)c3)c(=O)n1C2	?
Cc1cccc(C(=O)N2CCC(c3nc(-c4cccn4C)no3)C2)c1 (centres undefined)	i
COC(=O)c1cnn(-c2ccc(C(=O)Nc3ccc(OC(F)(F)F)cc3)cc2)c1N	-0.7%
CCCOc1ccc(CNC(=O)CCCn2nc(C)c3sc4ccccc4c3c2=O)cc1	-17.0%
CC1(C)[C@@H]2CC[C@@]1(C)[C@H](OC(=O)CSC#N)C2	-18.1%

Some of these compounds in order of heavy-atom count, lowest first.
SMILES	nsP2pro inh
Cc1oc2ncn(C)c(=O)c2c1C(=O)NCCCN1CCCC(C)C1 (centres undefined)	-4.9%
COC(=O)c1cnn(-c2ccc(C(=O)Nc3ccc(OC(F)(F)F)cc3)cc2)c1N	-0.7%
CCN(CC)C(=O)CSc1nc(-c2ccccc2F)nc2c1Cc1c(CO)cnc(C)c1O2	-27.9%

Continuation:
SMILES	nsP2pro inh
Cc1cc(C)n2c(Nc3ccccc3)c(-c3ccc(C)o3)nc2n1	62.1%
CCc1cccc(CC)c1NC(=O)C(CC)n1nc(C)n2c(cc3cc(C)ccc32)c1=O (centres undefined)	-14.7%
CCc1ccc2ncc3c(-c4ccc(C)cc4)nn(CC(=O)NCc4ccccc4)c3c2c1	-22.5%
COc1ccc(C2Nc3ccccc3C(=O)N2CCCN(C)C)cc1COc1c(C)cc(NC(C)=O)cc1C (centres undefined)	4.4%
Cc1ccc(-c2cc3n(n2)CCCN(C(=O)c2cc(CN4CCOCC4)on2)C3)o1	1µM*
Cc1cc(NC(=O)Nc2nnc(C3CCCCC3)s2)ccc1Cl	-2.2%
Fc1cccc(CNc2ncnc3ccc(-c4ccccc4Cl)cc23)c1	0.2%
CC[C@@]1(C(=O)O)C[C@H](C(=O)N(C)CCCO)[C@H](c2ccc(OC)cc2)N1C	-8.8%
CCN(CC)Cc1nccn1-c1ccc([N+](=O)[O-])cc1C(=O)c1ccccc1Cl	6.5%
O=C(O)C[C@@H]1CCN(S(=O)(=O)c2ccccc2)C[C@@H]1CCN(CCN1CCOCC1)c1ccccc1	-13.6%
N#Cc1cccc(N2CCN(Cc3ccc(F)c(Cl)c3F)CC2)n1	0.5%
COc1ccc(-n2c(=O)c3c(C)c(C)sc3n(CC(=O)NCc3ccc(C)cc3)c2=O)c(OC)c1	-6.1%
COc1ccc([C@H]2C[C@@H](O)[C@@H](O)[C@@H]2NC(=O)c2ccccn2)cc1	0.4%[39.2 µM]
COc1ccccc1N1CCN(C(=O)CCNS(=O)(=O)c2ccc3c(c2)CCN3C(=O)C2CC2)CC1	-6.8%
NC(=O)c1cc2c(nc1CCC1COc3ccccc3O1)CCC2 (centres undefined)	-2.2%
O=c1cc(-c2ccc(O)c(O)c2)oc2c([C@@H]3O[C@H](CO)[C@@H](O)[C@H](O)[C@H]3O)c(O)cc(O)c12	-2.9%
CCn1c(=O)c2cc(C(N)=O)c(N)nc2n(C2CC2)c1=O	15.1%
C/C(=C\c1ccc2c(c1)OCCO2)C1Nc2cccc3cccc(c23)N1	i
CCN(CC)CCCCn1c(-c2ccccc2)nc2c(NC3CCCCC3)nc(C)nc21	i
COC(=O)C1(Cc2ccc(O)cc2)OC(=O)C(OC)=C1c1ccc(O)cc1 (centres undefined)	4.3%
CC(C)NC(=O)C1CCN(C(=O)N2CC(C)Oc3ccccc32)CC1 (centres undefined)	-11.6%
COc1cccc(NC(=O)Cn2cc(C(=O)c3ccccc3)c3ccccc32)c1	-1.8%
O=C1Nc2ccc(O)cc2O[C@H]1O[C@@H]1O[C@H](CO)[C@@H](O)[C@H](O)[C@H]1O	-11.0%
Cc1ccc(CCNC(=O)c2cc3cc(S(=O)(=O)N4CCCCC4)ccc3n2C)cc1	-5.7%
O=C(C1CCN(c2ncnc3c2nc2n3CCCCC2)CC1)N1CCN(c2ccc(F)cc2)CC1	-1.3%
COC[C@@H]1CN(S(=O)(=O)c2c(C)noc2C)C[C@H]1c1ccncc1	-2.7%
CCS(=O)(=O)c1ncc(Cl)c(C(=O)Nc2ccccc2)n1	71.8%[activator]
Cc1cc(OC(C)C(=O)N(Cc2ccco2)Cc2ccco2)cc(C)c1Cl (centres undefined)	-20.1%
COc1cccc(-c2ccc(=O)n(CC(=O)NCCc3ccccc3)n2)c1	-1.1%
CCN(CCn1cccn1)Cc1ccccc1OCC(O)CN1CCCCC1 (centres undefined)	-3.8%
Cc1ccnc(NC(=O)N2CCN(c3cccc(C(F)(F)F)c3)CC2)c1	-4.9%
Cc1ccc(CN2CC(N(CC3CC3)C3CCOCC3)C2)cc1	i
CC(C)c1ccccc1-c1nc(NCc2ccc(-c3cccnc3)cc2)c2cccn2n1	-4.6%
CN1CCN(C[C@@H]2CN(C(=O)CCCc3cccs3)C[C@@H]2CO)CC1	1.3%
COc1cccc(N2CCN(c3ccc4nnc(CCC(=O)O)n4n3)CC2)c1	-7.9%
C=C1/C(=C\C=C2/CCC[C@@]3(C)C2CC[C@@H]3[C@H](C)/C=C\[C@@H](O)C2CC2)C[C@@H](O)C[C@@H]1O (some centres undefined)	-23.9%
Nc1nc2c(nc(Br)n2[C@@H]2O[C@@H]3COP(=O)(O)O[C@H]3[C@H]2O)c(=O)[nH]1	8.2%
CC(C)c1cc(C(=O)N2Cc3ccc(CN4CCN(C)CC4)cc3C2)c(O)cc1O	-10.9%&6.5%
Cc1cnc(-c2ccccc2C(C)C)nc1NC(C)c1ccc(-c2cccnc2)cc1 (centres undefined)	?
O=S(=O)(c1ccc(F)cc1)N1CCN(S(=O)(=O)c2ccc3c(c2)OCCO3)CC1	i
O=C1CCCC2=C1C(c1[nH]ncc1Cl)N=C(Nc1nc3ccc(Cl)cc3o1)N2 (centres undefined)	-3.5%
COC(=O)c1ccc(OC)cc1O[C@@H]1O[C@H](CO[C@@H]2OC[C@@H](O)[C@H](O)[C@H]2O)[C@@H](O)[C@H](O)[C@H]1O	12.8%[10 µM]
O=C(OC(C(F)(F)F)C(F)(F)F)N1CCN(Cc2cccc(Oc3ccccc3)c2)CC1	-20.8%
CS(=O)(=O)NCC(c1ccco1)N1CCN(c2ccccc2)CC1 (centres undefined)	-27.4%
Fc1cccc(CNc2ncnc3ccc(-c4cccnc4)cc23)c1	i
O=C(c1cnn(-c2cccc(F)c2)c1-n1cccc1)N1CCN(c2ccccc2F)CC1	-23.4%
CCOCCCNC(=O)CN1C(=O)c2c(c3ccccc3n2C)C1c1ccc(OC)cc1 (centres undefined)	-16.6%
O=C(Nc1ccccc1F)N1CC(Oc2ccc(-c3noc(-c4ccccc4)n3)cc2)C1	i
CN1CC2(CCCN(Cc3cc4ccccc4o3)C2)OC1=O (centres undefined)	14.1%
Cn1ncc2c(NCCc3nnc(N)s3)nc(-c3ccncc3)nc21	-29.5%
